Yeast UUG start = alters start codon recognition fidelity in yeast. activity score, % at 18.7 µM. S. cerevisiae UUG-firefly luciferase reporter, luminescence/redox ratio. 350,000 compounds, 0.13% hits. AID 602363;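 active = replicate mean at a twofold rise or more, about +100% in these data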;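 also: firefly luciferase made from a UUG start codon reports start codon fidelity; reporter light over untreated wells divided by growth signal over untreated wells; some hits fall short of that in this replicate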
HIV Env fusion = inhibitors of HIV Env-mediated cell fusion; HeLa-JRFL Env/CEM21 cell fusion, luciferase; inhibition, % at 12.3 µM; 360,000 compounds, 1.1% hits; AID 651610;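 active = mean replicate inhibition score of at least 50 and every replicate individually at or above 50; inconclusive = only one of the two criteria met; inactive = mean below 50 and not all replicates reaching 50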;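 also: 0% = plate neutral controls and 100% = maraviroc near 300 nM; one replicate is shown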
* marks the source's active call; other numbers are inactive results; & = joins results of further samples; [ ] = dose if it differs, or a comment.

Screening C[C@H]1CCCCO[C@H](CN(C)CC2CCCCC2)[C@@H](C)CN([C@@H](C)CO)C(=O)c2cc(NC(=O)CCC(F)(F)F)ccc2O1 returned Yeast UUG start 11 and HIV Env fusion 7[16.7 µM].
For C[C@@H]1CCCCO[C@H](CN(C)S(=O)(=O)c2cccs2)[C@@H](C)CN([C@H](C)CO)C(=O)c2cc(NS(=O)(=O)c3ccccc3)ccc2O1 the results were Yeast UUG start -7 and HIV Env fusion -1[16.7 µM].
`Cc1noc(C)c1NC(=O)Nc1cccc2c1O[C@H](CN(C)Cc1ccc3c(c1)OCO3)[C@H](C)CN([C@H](C)CO)C2=O` gave Yeast UUG start 11 and HIV Env fusion -7[16.7 µM].
Cc1ccc(S(=O)(=O)Nc2ccc3c(c2)C(=O)N([C@H](C)CO)C[C@H](C)[C@H](CN(C)S(=O)(=O)c2ccc(Cl)cc2)OCCCC[C@H](C)O3)cc1 was read as Yeast UUG start -11 and HIV Env fusion -7[16.7 µM].
Screening NCC[C@H]1CC[C@H](NS(=O)(=O)c2ccc(Cl)cc2)[C@@H](CO)O1 returned Yeast UUG start 12 and HIV Env fusion -1[16.7 µM].
`C[C@@H]1CCCCO[C@H](CN(C)C(=O)NC2CCCCC2)[C@H](C)CN([C@@H](C)CO)C(=O)c2cc(NS(=O)(=O)c3cn(C)cn3)ccc2O1` gave Yeast UUG start -4 and HIV Env fusion 29[16.7 µM].
`Cc1ccc(S(=O)(=O)N[C@@H]2C=C[C@H](CC(=O)NC3CCCCC3)O[C@@H]2CO)cc1` gave Yeast UUG start 3 and HIV Env fusion 11[16.7 µM].
Screening CCC(=O)N(C)C[C@H]1Oc2cc(Br)ccc2S(=O)(=O)N([C@@H](C)CO)C[C@@H]1C returned Yeast UUG start -1 and HIV Env fusion 5[16.7 µM].
CC(C)NC(=O)N(C)C[C@H]1Oc2cc(-c3ccncc3)ccc2S(=O)(=O)N([C@H](C)CO)C[C@H]1C was read as Yeast UUG start -7 and HIV Env fusion -6[16.7 µM].
`O=C(O)C[C@H]1C[C@@H]2c3cc(NC(=O)Nc4ccccc4)ccc3O[C@@H]2[C@H](CO)O1` gave Yeast UUG start 4 and HIV Env fusion -5[16.7 µM].
CC(C)C#Cc1cnc2c(c1)C(=O)N([C@@H](C)CO)C[C@H](C)[C@@H](CN(C)Cc1ccc3c(c1)OCO3)O2 was read as Yeast UUG start -1 and HIV Env fusion 6[16.7 µM].
`C[C@H](CO)N1C[C@H](C)[C@H](CN(C)Cc2ccc(C(=O)Nc3ccccc3N)cc2)Oc2ccc(NC(=O)C3CC3)cc2CC1=O` gave Yeast UUG start -1 and HIV Env fusion -218[16.7 µM].

Quoted at random: five entries already listed, in no set order.
`C[C@H](CO)N1C[C@H](C)[C@H](CN(C)Cc2ccc(C(=O)Nc3ccccc3N)cc2)Oc2ccc(NC(=O)C3CC3)cc2CC1=O` gave Yeast UUG start -1 and HIV Env fusion -218[16.7 µM].
Screening CCC(=O)N(C)C[C@H]1Oc2cc(Br)ccc2S(=O)(=O)N([C@@H](C)CO)C[C@@H]1C returned Yeast UUG start -1 and HIV Env fusion 5[16.7 µM].
Screening NCC[C@H]1CC[C@H](NS(=O)(=O)c2ccc(Cl)cc2)[C@@H](CO)O1 returned Yeast UUG start 12 and HIV Env fusion -1[16.7 µM].
`O=C(O)C[C@H]1C[C@@H]2c3cc(NC(=O)Nc4ccccc4)ccc3O[C@@H]2[C@H](CO)O1` gave Yeast UUG start 4 and HIV Env fusion -5[16.7 µM].
Cc1ccc(S(=O)(=O)Nc2ccc3c(c2)C(=O)N([C@H](C)CO)C[C@H](C)[C@H](CN(C)S(=O)(=O)c2ccc(Cl)cc2)OCCCC[C@H](C)O3)cc1 was read as Yeast UUG start -11 and HIV Env fusion -7[16.7 µM].

Next part:
`O=C(C[C@H]1C[C@@H]2c3cc(NC(=O)c4ccc5c(c4)OCO5)ccc3O[C@@H]2[C@H](CO)O1)NC1CCCC1` gave Yeast UUG start -8 and HIV Env fusion 6[16.7 µM].
Screening C[C@@H]1CN([C@@H](C)CO)C(=O)c2cc(C#Cc3ccccc3F)cnc2O[C@H]1CN(C)S(=O)(=O)c1ccccc1F returned Yeast UUG start -7 and HIV Env fusion 10[16.7 µM].
For CNC[C@@H]1Oc2ncc(Br)cc2C(=O)N([C@H](C)CO)C[C@@H]1C the results were Yeast UUG start -3 and HIV Env fusion 2&-24[16.7 µM].
O=S(=O)(N[C@H]1CC[C@@H](CCn2cc(C3CC3)nn2)O[C@H]1CO)c1ccc(Cl)cc1 was read as Yeast UUG start 0 and HIV Env fusion -13[16.7 µM].
Screening CCC(=O)Nc1ccc2c(c1)C(=O)N(C)[C@@H]1CC[C@@H](CC(=O)NCC3CC3)O[C@H]1CO2 returned Yeast UUG start 11 and HIV Env fusion 12[16.7 µM].
For C[C@H](CO)N1C[C@H](C)[C@@H](CN(C)C(=O)Nc2ccc(F)cc2)Oc2ccc(NC(=O)NC3CCCCC3)cc2C1=O the results were Yeast UUG start 16 and HIV Env fusion -16[16.7 µM].
Screening CCCNC(=O)N(C)C[C@H]1Oc2cc(C#CCN(C)C)ccc2S(=O)(=O)N([C@@H](C)CO)C[C@@H]1C returned Yeast UUG start 5 and HIV Env fusion -15[16.7 µM].
Screening C[C@H](CO)N1C[C@H](C)[C@H](CN(C)C(=O)c2cnccn2)Oc2cc(C#CCC3CCCC3)ccc2S1(=O)=O returned Yeast UUG start 25 and HIV Env fusion inconclusive.
Screening Cc1noc(C)c1S(=O)(=O)Nc1ccc2c(c1)C(=O)N([C@@H](C)CO)C[C@@H](C)[C@H](CN(C)C(=O)Nc1ccc3c(c1)OCO3)OCCCC[C@H](C)O2 returned Yeast UUG start 8 and HIV Env fusion 1[16.7 µM].
CNC[C@H]1OCCCC[C@@H](C)Oc2ccc(NC(=O)NC3CCCCC3)cc2C(=O)N([C@H](C)CO)C[C@@H]1C was read as Yeast UUG start 2 and HIV Env fusion 6[16.7 µM].
C[C@H]1CN([C@@H](C)CO)S(=O)(=O)c2ccc(C#CC(C)(C)O)cc2O[C@H]1CN(C)C(=O)CC1CC1 was read as Yeast UUG start -7 and HIV Env fusion 1[16.7 µM].
Screening COc1cccc(-c2cnc3c(c2)C(=O)N([C@H](C)CO)C[C@@H](C)[C@H](CN(C)CC2CCCC2)O3)c1 returned Yeast UUG start 8 and HIV Env fusion 18[16.7 µM].
Screening C[C@@H]1CCCCO[C@H](CN(C)Cc2ccc(C(=O)O)cc2)[C@H](C)CN([C@@H](C)CO)C(=O)c2cc(NS(=O)(=O)c3ccccc3)ccc2O1 returned Yeast UUG start 7 and HIV Env fusion -9[16.7 µM].
C[C@H](CO)N1C[C@H](C)[C@H](CN(C)C(=O)Nc2ccccc2)Oc2ncc(C#CCN(C)C)cc2C1=O was read as Yeast UUG start 22 and HIV Env fusion 2[16.7 µM].
For C/C=C/c1cnc2c(c1)C(=O)N([C@@H](C)CO)C[C@H](C)[C@H](CN(C)C(=O)Nc1c(C)noc1C)O2 the results were Yeast UUG start -8 and HIV Env fusion 10[16.7 µM].
For CCCN(C)C[C@@H]1Oc2ncc(C#CC3CC3)cc2C(=O)N([C@@H](C)CO)C[C@@H]1C the results were Yeast UUG start 2 and HIV Env fusion 16[16.7 µM].
Screening CCCN(C)C[C@H]1Oc2ncc(-c3cccc(C(=O)N(C)C)c3)cc2C(=O)N([C@@H](C)CO)C[C@H]1C returned Yeast UUG start -10 and HIV Env fusion 13[16.7 µM].
For C[C@@H]1CN([C@@H](C)CO)C(=O)Cc2cc(NC(=O)Nc3ccc(C(F)(F)F)cc3)ccc2O[C@H]1CN(C)S(=O)(=O)c1cn(C)cn1 the results were Yeast UUG start 0 and HIV Env fusion 22[16.7 µM].
Screening C[C@H](CO)N1C[C@H](C)[C@H](CN(C)Cc2ccncc2)OCCCC[C@H](C)Oc2ccc(NC(=O)Nc3ccc(C(F)(F)F)cc3)cc2C1=O returned Yeast UUG start 8 and HIV Env fusion 30[16.7 µM].
O=C(C[C@@H]1C=C[C@@H](NC(=O)Nc2ccc(F)cc2)[C@H](CO)O1)NCc1cccc(F)c1 was read as Yeast UUG start -5 and HIV Env fusion 19[16.7 µM].
CC(C)C(=O)Nc1ccc2c(c1)C(=O)N(C)[C@@H]1CC[C@@H](CC(=O)N[C@@H](C)c3ccccc3)O[C@@H]1CO2 was read as Yeast UUG start 6 and HIV Env fusion 20[16.7 µM].
C[C@H](CO)N1C[C@H](C)[C@@H](CN(C)Cc2ccncc2)Oc2c(NC(=O)Nc3ccc(F)cc3)cccc2C1=O was read as Yeast UUG start -6 and HIV Env fusion -12[16.7 µM].
Screening C[C@@H]1CN([C@H](C)CO)C(=O)c2cc(N(C)C)ccc2O[C@@H](C)CCCCO[C@@H]1CN(C)C(=O)NC1CCCCC1 returned Yeast UUG start 48 and HIV Env fusion -12[16.7 µM].
CCCNC(=O)N(C)C[C@H]1Oc2cc(C#C[C@H](C)O)ccc2S(=O)(=O)N([C@@H](C)CO)C[C@H]1C was read as Yeast UUG start -7 and HIV Env fusion 1[16.7 µM].
Screening CCCNC(=O)N(C)C[C@H]1Oc2ncc(C#C[C@H](C)O)cc2C(=O)N([C@H](C)CO)C[C@@H]1C returned Yeast UUG start 2 and HIV Env fusion -14[16.7 µM].
Screening Cc1ccc(S(=O)(=O)Nc2ccc3c(c2)C(=O)N([C@H](C)CO)C[C@H](C)[C@H](CN(C)C(=O)Nc2cccc4ccccc24)OCCCC[C@H](C)O3)cc1 returned Yeast UUG start -2 and HIV Env fusion 9[16.7 µM].
C[C@@H]1CN([C@H](C)CO)S(=O)(=O)c2ccc(C#CC3CC3)cc2O[C@H]1CN(C)C(=O)c1cccnc1 was read as Yeast UUG start -2 and HIV Env fusion 0[16.7 µM].
Screening CNC[C@H]1OCCCC[C@H](C)Oc2ccc(NC(=O)Nc3cccc4ccccc34)cc2C(=O)N([C@@H](C)CO)C[C@@H]1C returned Yeast UUG start 18 and HIV Env fusion 13[16.7 µM].
Screening CN(C)C(=O)C[C@H]1CC[C@@H]2[C@@H](COc3ccc(NC(=O)c4ccc(F)c(F)c4)cc3C(=O)N2C)O1 returned Yeast UUG start -1 and HIV Env fusion 18[16.7 µM].
N#C[C@H]1[C@H](c2ccc(-c3cccnc3)cc2)[C@H](CO)N1C(=O)C1CC1 was read as Yeast UUG start 10 and HIV Env fusion 9[16.7 µM].
`C[C@@H]1CCCCO[C@@H](CN(C)Cc2ccncc2)[C@@H](C)CN([C@@H](C)CO)C(=O)c2cc(NS(=O)(=O)c3cn(C)cn3)ccc2O1` gave Yeast UUG start -10 and HIV Env fusion 6[16.7 µM].
Screening C[C@H]1CN([C@@H](C)CO)C(=O)Cc2cc(NC(=O)C3CC3)ccc2O[C@@H]1CN(C)S(=O)(=O)c1ccc(F)cc1 returned Yeast UUG start -1 and HIV Env fusion -25[16.7 µM].
For C[C@@H]1CN([C@H](C)CO)C(=O)c2cc(NC(=O)Cn3cnnn3)ccc2O[C@@H]1CN(C)Cc1ccc(-c2ccccc2)cc1 the results were Yeast UUG start 11 and HIV Env fusion -13[16.7 µM].
Screening COC(=O)C[C@H]1C[C@H]2c3cc(NC(=O)Nc4ccc(OC)cc4)ccc3O[C@H]2[C@H](CO)O1 returned Yeast UUG start 0 and HIV Env fusion -12[16.7 µM].
For COc1cccc(CNC(=O)C[C@@H]2CC[C@@H](NC(=O)C3CCOCC3)[C@@H](CO)O2)c1 the results were Yeast UUG start -7 and HIV Env fusion 10[16.7 µM].
Screening Cc1noc(C)c1NC(=O)Nc1cccc2c1O[C@@H](CN(C)C(=O)NC(C)C)[C@@H](C)CN([C@H](C)CO)C2=O returned Yeast UUG start -4 and HIV Env fusion -33[16.7 µM].
`C[C@@H]1CCCCO[C@@H](CN(C)Cc2ccc3c(c2)OCO3)[C@@H](C)CN([C@@H](C)CO)C(=O)c2cc(NC(=O)C3CCCCC3)ccc2O1` gave Yeast UUG start 0 and HIV Env fusion -19[16.7 µM].
Screening C[C@@H]1CCCCO[C@H](CN(C)C(=O)Nc2ccccc2)[C@@H](C)CN([C@H](C)CO)C(=O)c2cc(NC(=O)Nc3ccc4c(c3)OCO4)ccc2O1 returned Yeast UUG start -2 and HIV Env fusion -1[16.7 µM].
Screening C[C@@H]1CCCCO[C@H](CN(C)S(=O)(=O)c2ccc(F)cc2)[C@@H](C)CN([C@@H](C)CO)C(=O)c2cc(NC(=O)C3CCCCC3)ccc2O1 returned Yeast UUG start -4 and HIV Env fusion 10[16.7 µM].
Screening O=C(Nc1ccc(C(F)(F)F)cc1)N[C@H]1C=C[C@H](CC(=O)N2CCCCC2)O[C@H]1CO returned Yeast UUG start 7 and HIV Env fusion -8[16.7 µM].
`C[C@H](CO)N1C[C@H](C)[C@H](CN(C)S(=O)(=O)c2ccc(Cl)cc2)Oc2c(NS(=O)(=O)c3ccccc3)cccc2C1=O` gave Yeast UUG start -9 and HIV Env fusion -14[16.7 µM].
C[C@H]1CN([C@@H](C)CO)C(=O)c2cccc(NC(=O)Nc3ccc4c(c3)OCO4)c2O[C@@H]1CN(C)Cc1ccc(-c2ccccc2)cc1 was read as Yeast UUG start 2 and HIV Env fusion 5[16.7 µM].
Cc1noc(C)c1NC(=O)Nc1ccc2c(c1)C(=O)N([C@H](C)CO)C[C@@H](C)[C@H](CN(C)C(=O)C1CCCCC1)OCCCC[C@@H](C)O2 was read as Yeast UUG start 17 and HIV Env fusion -21[16.7 µM].

An excerpt; the hit share may differ from the screen's.
